Bioassay records: PubChem, several laboratories
Rce1 inh: yeast Rce1p protease inhibitors, primary screen, biochemical, fluorescence, cell-free homogeneous; calls only; yeast membranes, quenched prenylated peptide cleavage fluorescence; 0.27% of 290,000 active; AID 2563, 2010;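 active = fall in fluorescence gain of 50% or more versus controls, with final raw signal at or below 3038400; inconclusive = same 50% fall but final raw signal above 3038400; inactive = fall in fluorescence gain under 50%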;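 note: plate controls were neutral control wells for no effect and wells lacking membranes for full effect; tested at 10 µM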
Target sequence (Q03530 whole entry, looked up): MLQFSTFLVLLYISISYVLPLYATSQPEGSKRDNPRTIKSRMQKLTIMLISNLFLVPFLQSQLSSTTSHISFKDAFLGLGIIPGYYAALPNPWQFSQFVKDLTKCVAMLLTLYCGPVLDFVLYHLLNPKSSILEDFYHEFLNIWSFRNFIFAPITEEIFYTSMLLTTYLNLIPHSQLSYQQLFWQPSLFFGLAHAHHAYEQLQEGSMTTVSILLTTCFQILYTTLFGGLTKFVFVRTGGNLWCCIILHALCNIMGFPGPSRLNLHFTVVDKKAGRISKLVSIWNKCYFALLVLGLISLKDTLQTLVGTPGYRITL
HIV Env fusion: inhibitors of HIV-1 Env-driven cell-cell fusion, primary screen, HeLa-JRFL effector, CEM21 target cells, luciferase | inhibition, % at 12.3 µM | 1.1% of 360,000 active;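 active = mean replicate inhibition score of at least 50 and every replicate individually at or above 50; inconclusive = only one of the two criteria met; inactive = mean below 50 and not all replicates reaching 50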;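 note: 0% = plate neutral controls and 100% = maraviroc near 300 nM; one replicate is shown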
Yeast UUG start: modulators of yeast start codon fidelity, primary screen, whole organism, S. cerevisiae, single point, plate reader | 0.13% of 350,000 active | AID 602363, 2012 | S. cerevisiae UUG-firefly luciferase reporter, luminescence/redox ratio | activity score, % at 18.7 µM;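 active = replicate mean at a twofold rise or more, about +100% in these data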;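 note: firefly luciferase made from a UUG start codon reports start codon fidelity; reporter light over untreated wells divided by growth signal over untreated wells; some hits fall short of that in this replicate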
CSC inhib: cancer stem cell viability inhibitors, primary screen, luminescence; cancer stem cell-like cells viability; AID 2717, 2010; inhibition, % at 7.5 µM; 1.1% of 300,000 active;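 active = mean at 75% or more and at least half the replicates too; inconclusive = mean and replicates disagree; tested in HMLE shEcad cells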;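 note: 0% = median of negative and 100% = median of positive control wells; the first replicate is given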
PABP FP inh: PABP poly(A) RNA binding inhibitors, primary screen, biochemical, fluorescence polarization, uHTS. inhibition, % at 35 µM. 1% of 290,000 active;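 active = 50% or more with normal probe brightness, or confirmed in later tests; inconclusive = above 50% with abnormal brightness, or retests that disagree; inactive = below 50% or failed in later tests; about a fifth of its hits are not listed in these tables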;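 note: calls also rest on retests at 20 µM and on dose response follow-up; controls were probe without protein and protein plus probe with vehicle; some compounds called inactive have numbers as strong as hits; many hits fall short of the cut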
MT1-MMP act inh: blockers of MT1-MMP proenzyme processing, primary screen, HT1080 RFP-PRO-GFP cells, GFP/RFP fluorescence; 0.061% of 360,000 active; GFP/RFP ratio change, % at 20 µM; AID 651647, 2012; GFP/RFP ratio fluorescence, overnight; percent of plate control window, DMSO zero;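 active = GFP/RFP ratio change of at least 30% with cell ATP level not reduced by more than half and red fluorescence within 50% of control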; note: strong numbers were not always called active
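Assay system: RFP-PRO-GFP reporter HT1080 cells; read-out basis: GFP/RFP fluorescence ratio; benchmarks: DMSO wells and RFP-L50D-GFP cells; doses: 20 µM single dose, 1% DMSO; schedule: overnight cell settling, then overnight compound exposure, 37 °C, 5% CO2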
eIF4H inh: human eIF4H binding inhibitors, primary screen, translation initiation inhibitor project, biochemical, uHTS, fluorescence polarization. Eukaryotic translation initiation factor 4H (Homo sapiens), Q15056. eIF4H fluorescence polarization binding assay. inhibition, % at 35 µM. 0.94% of 290,000 active;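 active = 50% or more with normal probe brightness, or confirmed in later tests; inconclusive = above 50% with abnormal brightness, or retests that disagree; inactive = below 50% or failed in later tests; about a fifth of its hits are not listed in these tables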;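 note: calls also rest on retests at 20 µM and on dose response follow-up; 0% = protein and probe with vehicle and 100% = probe without protein; strong numbers were not always called active; many hits fall short of the cut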
MT1-MMP act inh RFP: recorded beside MT1-MMP act inh, whose call it bears; RFP signal change, %; measured here: RFP expression control read;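 0 = vehicle wells; hits needed this value within 50% of zero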
* = called active by the depositor; i = inactive; ? = inconclusive; / = not tested or not shown.

1	COC(=O)c1ccc(CSc2nc3ccc(Cl)cc3[nH]2)o1
2	Cc1ccc2ccccc2c1Cn1c(-n2ccnc2)nc2c1c(=O)n(C)c(=O)n2C
3	COC(=O)C1=C/C=C\CN(C(c2ccccc2)c2ccccc2)/C=C\1C(=O)OC
4	Cc1ccc(S(=O)(=O)N2CCC(C(=O)OC3CCOC3=O)CC2)cc1C (stereo not given)
5	CC(NS(=O)(=O)c1ccc(OCC(=O)N2CCOCC2)cc1)c1ccccc1 (stereo not given)
Compound | 1 | 2 | 3 | 4 | 5
Rce1 inh | i | i | / | i | i
HIV Env fusion | / | -153 | 10 | -8 | /
Yeast UUG start | -8 | 3 | 1 | -6 | -23
CSC inhib | -5 | -10 | / | -17 | 5
PABP FP inh | -2 | 10 | / | / | -4
MT1-MMP act inh | / | -3 | -6 | 0 | -2
MT1-MMP act inh RFP | / | -1 | -5 | -1 | 0
eIF4H inh | 3 | 9 | / | / | 4

6	O=C(c1ccc(Cn2c(=S)[nH]c3cc4c(cc3c2=O)OCO4)cc1)N1CCN(c2ncccn2)CC1
7	Cc1ccc2ncnc(-c3ccccc3)c2c1
8	CC(C)(C)CN1CCNC(=O)C1CC(=O)NC1Cc2ccccc2C1 (stereo not given)
9	N=C1C(c2nc3ccccc3s2)=C(O)CN1Cc1ccccc1
10	O=[N+]([O-])c1ccc2c(OCc3nnc(-c4ccccc4Br)o3)ncnc2c1
Compound | 6 | 7 | 8 | 9 | 10
Rce1 inh | / | i | i | i | i
HIV Env fusion | / | 3 | -8 | -241 | -8
Yeast UUG start | / | -5 | / | -5 | -12
CSC inhib | 10 | 7 | -3 | 68 | 26
PABP FP inh | 7 | -2 | 3 | -6 | 15
MT1-MMP act inh | / | 1 | 6 | -4 | 1
MT1-MMP act inh RFP | / | -3 | 4 | -7 | 0
eIF4H inh | -3 | 0 | 4 | -11 | 40

11	CCOc1cc(O)c(-c2[nH]ncc2-c2nc(C)cs2)cc1CC
12	O=C(NC1CCCCC1)N1CCN(c2ccccc2Cl)CC1
13	O=C(C1CCCO1)N1CCN(C(=S)Nc2ccccc2C(F)(F)F)CC1 (stereo not given)
14	O=S(=O)(c1ccc(NCc2ccccc2)cc1)N1CCOCC1
15	O=C(O)COc1ccc(-c2nccc(-c3ccccn3)n2)cc1
Compound | 11 | 12 | 13 | 14 | 15
Rce1 inh | i | i | i | i | i
HIV Env fusion | 13 | 2 | -13 | 2 | 22
Yeast UUG start | / | -14 | / | -5 | /
CSC inhib | 51 | -4 | -12 | 3 | -20
PABP FP inh | -2 | 5 | 3 | 4 | 5
MT1-MMP act inh | -3 | 1 | -1 | 5 | 6
MT1-MMP act inh RFP | -13 | 3 | 2 | -1 | 3
eIF4H inh | 2 | -1 | -6 | 6 | 3

16	Cc1ccc(S(=O)(=O)/N=C(/Nc2ccc3[nH]c(=O)[nH]c3c2)c2ccc(F)cc2)cc1
17	COc1cc(C(=O)OC(C)CN2CCCC2)cc(OC)c1OC (stereo not given)
18	O=c1cc(N2CCCCC2)c(-c2ccccc2)nn1Cc1c(Cl)cccc1Cl
19	Cc1ccc(S(=O)(=O)CCC(=O)NCCc2ccc(Cl)cc2)cc1
20	COc1ccc(NC(=O)[C@H](C)NC(N)=O)cc1S(=O)(=O)Nc1cc(C)ccc1Br
Compound | 16 | 17 | 18 | 19 | 20
Rce1 inh | i | i | i | i | i
HIV Env fusion | -18 | -5 | / | -1 | -3
Yeast UUG start | / | -10 | -6 | -2 | -8
CSC inhib | -14 | 4 | 104* | -3 | 9
PABP FP inh | -4 | -1 | 11 | 3 | ?
MT1-MMP act inh | 3 | -7 | -15 | 0 | 6
MT1-MMP act inh RFP | -1 | 0 | -22 | 2 | 1
eIF4H inh | -4 | 9 | 5 | 1 | -9

21	CCNC(=S)N1CCC(C(N)=O)CC1
22	FC(F)(F)Oc1ccc(-c2cn3cccnc3n2)cc1
23	COc1ccc(C(=O)NCCC2=CCCCC2)cc1OC
24	COc1ccc(-c2noc(C3CCCN(C(=O)c4cccs4)C3)n2)cc1 (stereo not given)
25	CCOC(=O)c1ccc(N2C(=O)CC(Sc3ncccn3)C2=O)cc1 (stereo not given)
Compound | 21 | 22 | 23 | 24 | 25
Rce1 inh | i | i | i | i | i
HIV Env fusion | 0 | -18 | / | / | 1
Yeast UUG start | / | / | -14 | 6 | -8
CSC inhib | 3 | 14 | -9 | 1 | -16
PABP FP inh | 1 | 14 | -3 | -4 | 1
MT1-MMP act inh | 0 | 2 | 1 | 1 | -2
MT1-MMP act inh RFP | 3 | 4 | 3 | -7 | -3
eIF4H inh | -8 | -4 | -5 | 2 | -2

26	CCOC(=O)CSc1nc2c(c(=O)[nH]c(=O)n2C)n1CCCc1ccccc1
27	O=C(CC1Sc2ccccc2NC1=O)Nc1cccnc1 (stereo not given)
28	COc1ccc(CN2CCCCC2C(=O)Nc2ccc(OC)c(OC)c2)cc1OC (stereo not given)
29	N#CCC(=O)N/N=C/c1ccc(Sc2nc3ccccc3s2)o1
30	CC(=O)Nc1cc[n+](C(C)C(=O)c2ccccc2)cc1 (stereo not given)
Compound | 26 | 27 | 28 | 29 | 30
Rce1 inh | i | / | i | i | i
HIV Env fusion | -51 | 6 | / | -7 | -4
Yeast UUG start | / | / | -28 | -25 | -22
CSC inhib | 4 | -4 | -23 | 0 | -6
PABP FP inh | -3 | 10 | 4 | -3 | 4
MT1-MMP act inh | 1 | 2 | 4 | -6 | -2
MT1-MMP act inh RFP | 0 | 6 | -1 | 2 | 0
eIF4H inh | -3 | -4 | 2 | -7 | -4

31	CCc1cccc(NC(=O)COC(=O)C2CCN(c3ccc(C(F)(F)F)cn3)CC2)c1
32	O=C(CN(Cc1ccco1)S(=O)(=O)c1ccccc1)N/N=C/c1ccccc1C(=O)O
33	O=C(c1ccccc1NS(=O)(=O)c1ccc(F)cc1)N1CCCCC1
34	Cc1ccc(S(=O)(=O)Nc2ccc(S(=O)(=O)Nc3nccs3)cc2)cc1C
35	O=C(CN1C(=O)NC2(CCOc3ccccc32)C1=O)NCC(F)(F)F (stereo not given)
Compound | 31 | 32 | 33 | 34 | 35
Rce1 inh | i | i | i | / | i
HIV Env fusion | -1 | 1 | -86 | 3 | -7
Yeast UUG start | / | -8 | 0 | -33 | /
CSC inhib | / | 4 | -7 | / | -14
PABP FP inh | / | -4 | -6 | / | 0
MT1-MMP act inh | -1 | 1 | -3 | 4 | -3
MT1-MMP act inh RFP | 1 | 1 | 0 | -1 | -1
eIF4H inh | / | 0 | -10 | / | -3

36	CCC1CCCCN1CCCNC(=O)c1ccc(CS(=O)(=O)c2ccccc2C)o1 (stereo not given)
37	COc1cc2nc(CC(C)C)n(NC(=O)c3ccccc3)c(=O)c2cc1OC
38	Cc1ccc(NC(=O)CSc2ccccc2NC(=O)c2cccc(Cl)c2)cc1Cl
39	CCOc1ccc2c(c1)OC(c1ccc(C)cc1)(C(F)(F)F)NC2=O (stereo not given)
40	O=C1c2c(Cl)c(Cl)c(Cl)c(Cl)c2C(=O)N1c1nccs1
Compound | 36 | 37 | 38 | 39 | 40
Rce1 inh | i | i | i | i | /
HIV Env fusion | 5 | / | 1 | / | 4
Yeast UUG start | 2 | -10 | / | -13 | 18
CSC inhib | -13 | / | 16 | 58 | /
PABP FP inh | -2 | 2 | -18 | 0 | /
MT1-MMP act inh | 1 | -4 | 0 | 6 | 1
MT1-MMP act inh RFP | 1 | -1 | -1 | -9 | 4
eIF4H inh | 0 | -2 | -19 | -6 | /

41	Cc1ccc(COC(=O)NCc2cccnc2)cc1
42	COc1ccc(CCNS(=O)(=O)c2cn(C)cn2)cc1OC
43	NC(=O)[C@H](Cc1cc2ccccc2s1)NC(=O)[C@@H]1CC2(CC(c3cccc(NC(=O)[C@@H]4CCC(=O)N4)c3)=NO2)CN1C(=O)c1ccccc1 (stereo not given in full)
44	COc1cccc(C(c2sc3nc(C)nn3c2O)N2CCN(C(=O)c3ccco3)CC2)c1 (stereo not given)
45	COc1ccc(OCC(=O)NCCNC(=O)c2cccnc2)cc1
Compound | 41 | 42 | 43 | 44 | 45
Rce1 inh | i | i | i | i | i
HIV Env fusion | -13 | 1 | 0 | 54 | 5
Yeast UUG start | -10 | -20 | -10 | -10 | -11
CSC inhib | -13 | -12 | 7 | -6 | /
PABP FP inh | 8 | 1 | 3 | 4 | 6
MT1-MMP act inh | -3 | -1 | -3 | 1 | 0
MT1-MMP act inh RFP | 1 | 3 | -3 | 5 | 5
eIF4H inh | -4 | -1 | 10 | -3 | 2

46	O=C1CC(C2CCCO2)C(=O)N1Cc1ccccc1 (stereo not given)
47	O=C(O)CCCCN1C(=O)/C(=C\c2ccc(OCc3ccccc3)c(OCc3ccccc3)c2)SC1=S
48	O=C(CSc1ccccn1)NC1CCCc2c1cnn2-c1ccccc1F (stereo not given)
49	COc1ccc(C(=O)Nc2ccccc2NC(=O)c2ccco2)c(OC)c1
50	O=C(c1cccc(Cl)c1)N1CCC2CC1c1cc(N3CCOCC3)ccc12 (stereo not given)
Compound | 46 | 47 | 48 | 49 | 50
Rce1 inh | i | i | / | i | /
HIV Env fusion | / | -61 | 0 | -6 | -20
Yeast UUG start | -34 | -19 | 0 | -9 | -14
CSC inhib | -7 | 31 | / | 4 | /
PABP FP inh | 1 | -1 | / | -9 | /
MT1-MMP act inh | -1 | 10 | 6 | -2 | 2
MT1-MMP act inh RFP | 0 | 0 | -5 | -1 | 1
eIF4H inh | 0 | 8 | / | 1 | /

51	CCCc1cc(NCCCCO)n2c(nc3ccccc32)c1C#N
52	CC(OC(=O)c1ccc2ncsc2c1)C(=O)NCc1ccccc1 (stereo not given)
53	COc1ccc(OCc2cc(C(=O)NCc3cccc(C)n3)no2)c(Cl)c1
54	COc1cc(C2CC(=O)Oc3cc(C)c(Br)c(C)c32)cc(OC)c1OC (stereo not given)
55	O=C(OCn1nnc2ccccc2c1=O)c1ccc(S(=O)(=O)N2CCOCC2)cc1
Compound | 51 | 52 | 53 | 54 | 55
Rce1 inh | i | i | i | / | i
HIV Env fusion | -8 | / | / | 6 | /
Yeast UUG start | -10 | / | -16 | 13 | 1
CSC inhib | -8 | -5 | -8 | / | -9
PABP FP inh | 5 | -4 | 13 | / | -4
MT1-MMP act inh | 1 | / | 1 | 3 | 3
MT1-MMP act inh RFP | -7 | / | 2 | 1 | 4
eIF4H inh | 2 | 2 | 5 | / | 0

56	Cc1cc(C)c(S(=O)(=O)NCC2CCC(C(=O)NCCCN3CCC(C)CC3)CC2)c(C)c1 (stereo not given)
57	CCC(c1nnnn1CCC(C)C)N1CCC(C(N)=O)CC1 (stereo not given)
58	O=C(NCc1ccccc1Cl)C1CCCN1C(=O)NCc1ccccc1 (stereo not given)
59	CC(OC(=O)c1cccc(-n2cnnn2)c1)C(=O)Nc1ccc(F)cc1 (stereo not given)
60	COc1ccc(CN(C(C)=O)c2cc(C)c([N+](=O)[O-])cc2OC)cc1OC
Compound | 56 | 57 | 58 | 59 | 60
Rce1 inh | i | i | i | i | /
HIV Env fusion | 3 | -5 | 11 | 18 | 0
Yeast UUG start | 18 | -2 | -16 | 3 | -19
CSC inhib | -3 | -3 | -14 | -11 | /
PABP FP inh | / | 7 | 8 | -2 | /
MT1-MMP act inh | 3 | -2 | 0 | 2 | 4
MT1-MMP act inh RFP | 2 | -5 | 0 | -11 | 3
eIF4H inh | / | 2 | 2 | -2 | /
